Vaccinia inh – blocks a specific stage of Vaccinia orthopoxvirus infection; Vaccinia-infected cells, mCherry/Venus stage reporter fluorescence; active compounds read low; some inactives read as strong as hits; activity change (mCherry), % (concentration not given with the values); 0.01% of 89,000 active; AID 1053133;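 active = mCherry past -33% and 40 or more points under the early reporter, replicates agreeing; inconclusive = past -33% without that gap or agreement; tested in A549 cells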;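 note: scaled between vehicle wells and reference inhibitor wells; 23 nL library stock went into each well; one replicate is shown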
Vaccinia inh Venus – also measured in Vaccinia inh; calls as there; activity change (Venus), %; measured here: Venus reporter, other viral stage;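 negative = less Venus signal; first of two replicates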
Numbers without * were called inactive; ? = inconclusive; . = no result given; & = joins results of further samples.

1. O=C(N[C@@H]1CC[C@@H](CCn2cc(-c3ccccc3)nn2)O[C@H]1CO)c1ccccc1F
2. CCCC#Cc1ccc2c(c1)O[C@H](CN(C)Cc1ccncc1)[C@H](C)CN([C@@H](C)CO)S2(=O)=O
3. Cc1noc(C)c1NC(=O)Nc1ccc2c(c1)C(=O)N([C@@H](C)CO)C[C@@H](C)[C@H](CN(C)C(=O)Nc1c(C)noc1C)OCCCC[C@@H](C)O2
4. O=C(C[C@H]1CC[C@H]2[C@@H](COC[C@@H](O)CN2Cc2ccccc2)O1)N1CCOCC1
5. C[C@H]1CN([C@@H](C)CO)C(=O)Cc2cc(NS(C)(=O)=O)ccc2O[C@H]1CN(C)S(=O)(=O)c1ccc(Cl)cc1
6. CN(C)C(=O)C[C@H]1C[C@@H]2c3cc(NC(=O)CC4CC4)ccc3O[C@@H]2[C@@H](CO)O1
7. C[C@@H]1CN([C@@H](C)CO)C(=O)c2cccc(NS(C)(=O)=O)c2O[C@H]1CN(C)C(=O)Nc1ccc(C(F)(F)F)cc1
8. Cn1cnc(S(=O)(=O)N[C@H]2C=C[C@H](CC(=O)N3CCN(c4ccccc4)CC3)O[C@H]2CO)c1
9. O=C(NC[C@H]1CC[C@@H]2[C@@H](CN2C(=O)C2CCOCC2)O1)c1cccnc1
10. O=C(C[C@@H]1CC[C@H]2[C@@H](COC[C@H](O)CN2CCC(F)(F)F)O1)NCc1ccc2c(c1)OCO2

screen / no. | 1 | 2 | 3 | 4 | 5 | 6 | 7 | 8 | 9 | 10
Vaccinia inh | 3 | ? | 13 | 17 | 9 | -1 | 7 | 6 | 6 | 20
Vaccinia inh Venus | 1 | . | 6 | 8 | 7 | -5 | 1 | 3 | 10 | 22

Compounds 8–10 of the list above:
8. Cn1cnc(S(=O)(=O)N[C@H]2C=C[C@H](CC(=O)N3CCN(c4ccccc4)CC3)O[C@H]2CO)c1
9. O=C(NC[C@H]1CC[C@@H]2[C@@H](CN2C(=O)C2CCOCC2)O1)c1cccnc1
10. O=C(C[C@@H]1CC[C@H]2[C@@H](COC[C@H](O)CN2CCC(F)(F)F)O1)NCc1ccc2c(c1)OCO2

screen / no. | 8 | 9 | 10
Vaccinia inh | 6 | 6 | 20
Vaccinia inh Venus | 3 | 10 | 22

Carrying on.
11. CCCC(=O)Nc1ccc2c(c1)C(=O)N(C)[C@@H]1CC[C@@H](CC(=O)Nc3ccccc3)O[C@@H]1CO2
12. COc1ccc(S(=O)(=O)N(C)C[C@H]2OCCCC[C@H](C)Oc3ccc(NS(=O)(=O)c4cn(C)cn4)cc3C(=O)N([C@@H](C)CO)C[C@H]2C)cc1
13. COCC(=O)Nc1ccc2c(c1)C(=O)N(C)C[C@@H](OC)[C@H](C)CN(CCC(F)(F)F)[C@H](C)CO2
14. COc1cccc(S(=O)(=O)N[C@@H]2C=C[C@H](CC(=O)NC3Cc4ccccc4C3)O[C@H]2CO)c1
15. O=C1CNC[C@@H]2[C@H](c3ccc(C4=CCCC4)cc3)[C@H](CO)N12
16. O=C(C1CCOCC1)N1C[C@H]2[C@@H](c3ccccc31)[C@@H](CO)N2Cc1ccccc1F
17. CC(C)NC(=O)NCC[C@@H]1CC[C@@H](NC(=O)c2ccc(F)cc2)[C@@H](CO)O1
18. C[C@@H]1CN([C@@H](C)CO)C(=O)c2cc(NS(=O)(=O)c3ccc(Cl)cc3)ccc2O[C@H]1CN(C)Cc1ccc2c(c1)OCO2
19. C[C@@H]1CN([C@H](C)CO)C(=O)c2cc(C#CC3(O)CCCC3)cnc2O[C@@H]1CN(C)S(=O)(=O)c1ccc(F)cc1
20. C[C@H](CO)N1C[C@H](C)[C@@H](CN(C)Cc2cncnc2)Oc2cc(-c3ccccc3F)ccc2S1(=O)=O

screen / no. | 11 | 12 | 13 | 14 | 15 | 16 | 17 | 18 | 19 | 20
Vaccinia inh | -5 | 43 | 2 | 2 | 9 | 11 | 14 | -16 | -10 | -14
Vaccinia inh Venus | 5 | 8 | -1 | 3 | 1 | 9 | 7 | -17 | -10 | -11

21. CC(C)NC(=O)Nc1ccc2c(c1)C(=O)N([C@H](C)CO)C[C@@H](C)[C@H](CN(C)S(=O)(=O)c1ccc(Cl)cc1)OCCCC[C@H](C)O2
22. C[C@@H]1CN([C@H](C)CO)S(=O)(=O)c2ccc(C#C[C@@H](C)O)cc2O[C@@H]1CN(C)C(=O)C1CCC1
23. COCC(=O)N1[C@@H]2c3ccc(-c4ccc(F)cc4)c(=O)n3C[C@@H]2[C@@H](CO)[C@@H]1C(=O)Nc1ccccc1
24. C[C@@H]1CN([C@H](C)CO)C(=O)Cc2cc(NC(=O)Nc3ccccc3)ccc2O[C@@H]1CN(C)Cc1ccccc1
25. COc1ccccc1S(=O)(=O)N1CC[C@@H]2[C@@H](CO)N(C)c3ccc(-c4ccc(F)cc4)cc3[C@@H]21
26. CCCNC(=O)Nc1ccc2c(c1)OC[C@H](C)N(C(=O)C1CCC1)C[C@H](C)[C@H](OC)CN(C)C2=O
27. O=C(N[C@H]1CC[C@H](CC(=O)N2CCCCC2)O[C@H]1CO)c1cccc(F)c1
28. CC(C)CC#Cc1ccc([C@@H]2[C@@H](CO)N3C(=O)CN(C(=O)NC4CCCC4)C[C@H]23)cc1
29. O=C(C1CCOCC1)N1CC(=O)N2[C@H](C1)[C@H](c1ccc(-c3ccccc3F)cc1)[C@@H]2CO
30. O=C(Nc1ccccc1)N1CC(=O)N2[C@H](C1)[C@H](c1ccc(C#CC3CCCCC3)cc1)[C@@H]2CO

screen / no. | 21 | 22 | 23 | 24 | 25 | 26 | 27 | 28 | 29 | 30
Vaccinia inh | ? | 1 | -6 | -22 | -24 | 5 | 4 | ? | 5 | ?
Vaccinia inh Venus | . | -5 | -8 | -13 | -34 | 3 | 2 | . | 6 | .

31. C[C@@H]1CN([C@@H](C)CO)C(=O)c2cc(NS(=O)(=O)c3ccccc3)ccc2O[C@@H](C)CCCCO[C@H]1CN(C)C(=O)CCC(F)(F)F
32. COCC(=O)N1CC(=O)N2[C@H](C1)[C@@H](c1ccc(C#CC3CC3)cc1)[C@@H]2CO
33. C[C@H]1CN([C@@H](C)CO)C(=O)c2cc(NC(=O)C3CCCCC3)ccc2O[C@H]1CN(C)S(=O)(=O)c1ccc(F)cc1
34. COc1ccc(NC(=O)N(C)C[C@@H]2Oc3cc(-c4cccc(C(=O)N(C)C)c4)ccc3S(=O)(=O)N([C@@H](C)CO)C[C@H]2C)cc1
35. C[C@@H]1CCCCO[C@H](CN(C)C(=O)Cc2ccccc2)[C@H](C)CN([C@@H](C)CO)C(=O)c2cc(NS(=O)(=O)c3cccs3)ccc2O1
36. O=C(NC1CCCCC1)N1CC2(C1)[C@H](c1ccccc1)[C@H](CO)N2S(=O)(=O)Cc1ccccc1
37. C[C@H](CO)N1C[C@H](C)[C@H](CN(C)S(C)(=O)=O)Oc2ncc(-c3cccc(F)c3)cc2C1=O
38. O=C(C1CCC1)N1C[C@H]2[C@@H](c3ccccc31)[C@H](CO)N2S(=O)(=O)c1ccccc1
39. CCCC#Cc1ccc([C@@H]2[C@H]3CN(C(=O)Nc4ccccc4F)CC(=O)N3[C@H]2CO)cc1
40. CO[C@@H]1CN(C)C(=O)c2cc(NC(=O)c3cccc(F)c3)ccc2OC[C@@H](C)N(C)C[C@@H]1C

screen / no. | 31 | 32 | 33 | 34 | 35 | 36 | 37 | 38 | 39 | 40
Vaccinia inh | -5 | 6 | 7 | 4 | -19 | -14 | 23&12 | 1 | -13 | 0
Vaccinia inh Venus | -1 | 12 | 5 | 3 | -10 | -6 | 4&5 | 0 | -20 | 3

41. CN1CCN(C(=O)C[C@@H]2CC[C@H]3[C@@H](COC[C@@H](O)CN3C(=O)c3ccc(F)cc3)O2)CC1
42. CC(C)NC(=O)Nc1ccc2c(c1)C(=O)N([C@H](C)CO)C[C@@H](C)[C@H](CN(C)C(=O)c1ccccc1)OCCCC[C@H](C)O2
43. CCCc1cn(CC[C@@H]2CC[C@@H](NC(=O)C3CC3)[C@@H](CO)O2)nn1
44. O=C(c1ccc2c(c1)OCO2)N1C[C@@H]2[C@H](c3ccccc31)[C@@H](CO)N2Cc1ccccc1Cl
45. Cc1ccc(S(=O)(=O)N(C)C[C@H]2Oc3ccc(NS(=O)(=O)c4ccccc4)cc3CC(=O)N([C@@H](C)CO)C[C@H]2C)cc1
46. C/C=C/c1cnc2c(c1)C(=O)N([C@H](C)CO)C[C@@H](C)[C@H](CN(C)C(=O)NC1CCCCC1)O2
47. C[C@@H]1CN([C@@H](C)CO)C(=O)c2cccc(NC(=O)Nc3ccc4c(c3)OCO4)c2O[C@H]1CN(C)C(=O)Nc1ccc(C(F)(F)F)cc1
48. C[C@@H]1CN([C@@H](C)CO)C(=O)c2cccc(NC(=O)c3ccncc3)c2O[C@H]1CN(C)S(=O)(=O)c1ccccc1
49. C[C@H]1CN([C@@H](C)CO)C(=O)c2ccccc2-c2ccccc2CO[C@@H]1CN(C)C(=O)Nc1ccccc1
50. O=C(NC1CCCCC1)N[C@H]1CC[C@H](CC(=O)N2CCOCC2)O[C@H]1CO

screen / no. | 41 | 42 | 43 | 44 | 45 | 46 | 47 | 48 | 49 | 50
Vaccinia inh | 11 | -2 | 10 | 9 | -19 | 11 | -6 | 9 | 20 | 4
Vaccinia inh Venus | 12 | 4 | 8 | 9 | -11 | 11 | -12 | 4 | 18 | 4

51. C[C@@H]1CN([C@@H](C)CO)S(=O)(=O)c2ccc(C#CC3(O)CCCC3)cc2O[C@@H]1CN(C)C(=O)Cc1cccnc1
52. CNC[C@@H]1Oc2c(NC(=O)c3ccc(-c4nccs4)cc3)cccc2C(=O)N([C@@H](C)CO)C[C@@H]1C
53. Cc1noc(C)c1S(=O)(=O)Nc1ccc2c(c1)CC(=O)N([C@H](C)CO)C[C@@H](C)[C@H](CN(C)C(=O)Nc1ccc(F)cc1)O2
54. O=C(C[C@H]1CC[C@@H](NC(=O)Nc2cccc(F)c2)[C@H](CO)O1)NCC1CCCCC1
55. C[C@@H]1CCCCO[C@H](CN(C)C(=O)Nc2cccc3ccccc23)[C@H](C)CN([C@@H](C)CO)C(=O)c2cc(NS(C)(=O)=O)ccc2O1
56. O=C(Nc1cc(F)ccc1F)N1CC(=O)N2[C@H](C1)[C@@H](c1ccc(C#CC3CCCCC3)cc1)[C@@H]2CO
57. O=C(Cc1ccccn1)N1CCCCN2[C@H](C1)[C@@H](c1ccc(C#Cc3ccccc3)cc1)[C@@H]2CO
58. C[C@H](CO)N1C[C@H](C)[C@@H](CN(C)C(=O)C2CCCCC2)OCCCC[C@H](C)Oc2ccc(NS(=O)(=O)c3ccc(F)cc3)cc2C1=O
59. CCCNC(=O)C[C@H]1CC[C@@H]2[C@@H](COc3ccc(NC(=O)c4ccc(C(F)(F)F)cc4)cc3C(=O)N2C)O1
60. COc1ccc(S(=O)(=O)N(C)C[C@H]2OCc3cn(nn3)CCCC(=O)N([C@H](C)CO)C[C@@H]2C)cc1

screen / no. | 51 | 52 | 53 | 54 | 55 | 56 | 57 | 58 | 59 | 60
Vaccinia inh | 29 | 12 | 24 | -18 | 24 | ? | -12 | ? | ? | -7&1
Vaccinia inh Venus | 4 | 9 | 16 | -14 | 19 | . | -12 | . | . | -13&2

61. O=C(C[C@H]1C=C[C@@H](NC(=O)C2CCC2)[C@H](CO)O1)NC1CCC1
62. O=C(N[C@@H]1CC[C@H](CCn2cc(-c3ccccn3)nn2)O[C@H]1CO)c1cccnc1
63. O=C(C[C@@H]1CC[C@@H]2[C@H](COC[C@@H](O)CN2C(=O)c2ccncc2)O1)NC1CCC1
64. Cc1ccc(NC(=O)Nc2ccc3c(c2)C(=O)N(C)[C@@H]2CC[C@@H](CC(=O)NCC(F)(F)F)O[C@H]2CO3)cc1
65. COCC(=O)Nc1ccc2c(c1)[C@H]1C[C@@H](CC(=O)N[C@@H](C)c3ccccc3)O[C@@H](CO)[C@H]1O2
66. COc1cc(CO)cc(I)c1O[C@H]1C=C(C(=O)NCCO)C[C@@H](NCc2ccccc2F)[C@@H]1O
67. C[C@@H](NC(=O)C[C@@H]1C[C@@H]2c3cc(NC(=O)Nc4ccccc4F)ccc3O[C@@H]2[C@@H](CO)O1)c1ccccc1
68. COc1ccccc1NC(=O)N[C@H]1C=C[C@@H](CC(=O)NCc2ccc(Cl)c(Cl)c2)O[C@H]1CO
69. C[C@H]1CN([C@@H](C)CO)C(=O)Cc2cc(NC(=O)Nc3ccc(F)cc3)ccc2O[C@@H]1CN(C)Cc1ccc(C(=O)Nc2ccccc2N)cc1
70. O=C(CN1CCOCC1)NCC[C@@H]1CC[C@H](NC(=O)Nc2ccccc2)[C@@H](CO)O1

screen / no. | 61 | 62 | 63 | 64 | 65 | 66 | 67 | 68 | 69 | 70
Vaccinia inh | 9 | 17 | 4 | -2 | -2 | 3 | 7 | -27 | 11 | 12
Vaccinia inh Venus | 24 | 11 | 2 | 2 | 1 | -1 | 2 | -14 | 11 | 14

71. C[C@H]1CN([C@@H](C)CO)C(=O)Cc2cc(NS(=O)(=O)c3ccccc3)ccc2O[C@H]1CN(C)C(=O)NC1CCCCC1
72. CN(C)CC(=O)N[C@@H]1CC[C@H](CCNC(=O)C2CC2)O[C@H]1CO
73. O=C(C[C@@H]1CC[C@H]2[C@@H](COC[C@H](O)CN2C(=O)Nc2ccc(Cl)cc2)O1)NCCc1ccncc1
74. C[C@@H]1CN([C@@H](C)CO)C(=O)c2cccc(NC(=O)c3cnccn3)c2O[C@H]1CN(C)Cc1ccc(-c2ccccc2)cc1

screen / no. | 71 | 72 | 73 | 74
Vaccinia inh | 0 | -1 | -7 | ?
Vaccinia inh Venus | 9 | 1 | -1 | .

Assay outcomes as filed in PubChem BioAssay.

A portion of the library (hit frequency here may not be typical).
